High-throughput results deposited in PubChem BioAssay by several laboratories.
BJeLR lethal: kills HRASV12-expressing BJeLR cells; AID 1554; inhibition, % (test concentration not listed); BJeLR (HRASV12) viability, CellTiter-Glo ATP luminescence, 48 h; reference of the scale not given here; hit rate 0.17% among 300,000;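 active = replicate mean above 50%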;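 also: 50 nL library stock added to about 25 µL; numbers are from one replicate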
PrP 5UTR inh: suppresses PrP 5' UTR mRNA reporter expression | inhibition, % (no concentration beside the values) | cell-based PrP 5' UTR mRNA reporter, plate reader | hit rate 0.35% among 340,000;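 active = every replicate at 50% or more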;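 also: 0 = median of the neutral control wells; tested in H4 reporter cells; numbers are from one replicate; inactives centre near -14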
RN4220 kill: kills Staphylococcus aureus RN4220; inhibition, % (no concentration beside the values); AID 1259311; hit rate 0.33% among 330,000; S. aureus RN4220 growth, OD600, 16 h;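 active = z-score of -3 or lower and OD600 up to 0.18 on both plates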;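 also: plate controls were untreated cells for no effect and reference antibiotic for full effect; stock transfer was 100 nL into about 80 µL; one replicate is shown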
Mtb hypoxia rep: Mtb hypoxia fluorescent reporter inhibition. fluorescence inhibition, % (concentration not given with the values). M. tuberculosis hypoxia-regulated fluorescent reporter, fluorescence. hit rate 0.1% among 300,000;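 active = 35 to 45% if threefold the growth effect, above 45% if 1.5-fold the growth effect; inactive = the rest, general growth blockers included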;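 also: wells of about 50 µL received 100 nL stock; 0% = vehicle wells and 100% = reference inhibitor wells; whole bacteria with a GFP reporter of the hypoxia response; strong numbers were not always called active; many hits fall short of the cut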
Autofluor counter: compound fluorescence in toxin protease inhibitor counterscreen | compound autofluorescence counterscreen, microsphere flow cytometry; hits give high values | hit rate 3.1% among 360,000 | fluorescence intensity (no concentration beside the values) | AID 624483;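 active = at least 3 SD above the mean of all compounds, about 16000 in these data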;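 also: 100 nL of 1 mM stock went into each well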
Sa ugtP lethal: kills S. aureus RN4220 lacking UgtP. hit rate 0.54% among 330,000. S. aureus RN4220 ugtP deletion, OD600 growth, 16 h; some inactives read as strong as hits. growth inhibition, % (concentration not given with the values). AID 1259309;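 active = z-score under -3 and OD600 up to 0.15 on both plates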;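 also: plate controls were untreated wells for no effect and antibiotic for full effect; wells of about 80 µL received 100 nL stock; the first replicate is given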
Mtb hypoxia rep growth: also measured in Mtb hypoxia rep; calls as there; growth inhibition, %; measured here: M. tuberculosis growth (absorbance);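 0% = vehicle and 100% = reference antibiotic; read after six days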
An asterisk follows results filed as active; . = not tested or not shown.

SMILES	Mtb hypoxia rep	PrP 5UTR inh	Autofluor counter	Sa ugtP lethal	Mtb hypoxia rep growth	RN4220 kill	BJeLR lethal
O=C(O)c1cc(S(=O)(=O)Nc2ccc3cn[nH]c3c2)ccc1O	5	-22	8667	6	7	2.6	.
COc1ccccc1CNC(=O)Cn1nc(C)c([N+](=O)[O-])c1C	6	-24	3922	5	4	2.7	-9
O=[N+]([O-])c1ccccc1/C=N/Nc1nc(N2CCCC2)nc(N2CCCC2)n1	.	-18	3910	.	.	.	11
COc1ccc(CN2CC(=O)N(c3cc(Cl)ccc3OC)C2=S)cc1OC	7	-9	3530	-4	3	4.0	-3
CCCCCCCCNc1nc(Cl)nc(NCc2ccco2)n1	4	-52	2607	9	2	-1.2	-8
O=C(Nc1ccc(S(=O)(=O)N2CCOCC2)cc1)C1CC1	2	-2	5752	10	3	2.1	-6
Cc1nn(Cc2ccccc2Cl)c(C)c1N	1	2	2498	-4	4	-21	-9
CC(C)C(NC(=O)C(CC(=O)O)NC(=O)C(CCCCN)NC(=O)C(N)CCCN=C(N)N)C(=O)NC(Cc1ccc(O)cc1)C(=O)O (configuration not stated)	-2	.	.	-3	2	4.6	.
O=C1CN(C(=O)COC(=O)c2cccc(Br)c2)c2ccccc2N1	-1	6	.	-3	-3	1.5	.
O=C(NCc1ccccc1)c1ccc(NS(=O)(=O)c2cccs2)cc1	6	-20	8701	9	2	-1.9	.
Cc1ccc(C=Nn2cc(-c3ccccc3)[nH]c2=S)s1	4	.	.	-6	10	2.7	.
CN1CCN(C(=O)C2CCCN(S(=O)(=O)c3ccc(F)cc3)C2)CC1 (configuration not stated)	2	-11	5355	-2	5	1.3	-5
Cc1cccc(Nc2nc(-c3ccc(O)cc3O)cs2)n1	10	-56	3477	-16	-3	-7.7	-1
COc1cccc(CC(=O)Nc2nc(-c3cc(OC)ccc3OC)cs2)c1	6	-5	4142	-3	8	-1.7	-5
CCc1nnc(SCc2cccc(F)c2)nc1CC	12	-11	3550	3	8	5.7	-8

Other records:
SMILES	Mtb hypoxia rep	PrP 5UTR inh	Autofluor counter	Sa ugtP lethal	Mtb hypoxia rep growth	RN4220 kill	BJeLR lethal
Cc1ccc(C(=O)Oc2cc(N)n(S(=O)(=O)c3ccc(F)cc3)n2)cc1	2	-20	6008	0	4	3.4	0
O=C(O)CCCNC(=O)OCc1ccccc1	-6	-5	5683	-8	2	-4.1	-5
COc1ccc(CC(NC(C)=O)C(=O)NC2CCN(S(=O)(=O)c3ccc(NC(C)=O)cc3)CC2)c(OC)c1 (configuration not stated)	-1	-11	4266	3	-5	5.5	-1
CC(C)[C@H](NC(=O)OCc1ccccc1)C(=O)OCC(=O)N1CCN(c2ccccc2)CC1	-3	-3	4547	3	-4	1.0	-3
N#Cc1ccccc1OCC(=O)NCC1(N2CCCCC2)CCCCC1	-5	-15	5369	5	-9	11	.
COc1ccc2c(c1)N1CCN=C1N2C	.	-18	2882	-2	.	0.2	-4
Cc1cc(NC(=O)CO/N=C/c2ccc3c(c2)OCO3)ccc1Br	.	-17	3512	.	.	.	13
C=CCOC(=O)/C(=C\c1cccc2ccccc12)NC(=O)c1ccccc1	.	-26	3321	.	.	.	1
CCCC(c1nnnn1Cc1ccc(F)cc1)N1CCN(C)CC1 (configuration not stated)	4	-16	4318	3	-3	0.4	4
Cc1nn2c(-c3ccncc3)nnc2c2ccccc12	.	-18	2980	0	.	5.1	.
CCc1cccc(NC(=O)CSC2=NS(=O)(=O)c3ccccc32)c1	3	-15	4180	43	8	-28	-7
O=C(Cn1cnc2ccccc2c1=O)Nc1ccc(-c2nnc3n2CCCCC3)cc1	5	-32	8286	4	5	1.6	-10
CCOc1ccc(S(=O)(=O)N(C)c2ccc(OCC(=O)Nc3ccc4[nH]c(=O)[nH]c4c3)cc2)cc1	1	-19	3205	1	12	4.3	-2
Cn1nc(C(=O)N2CCN(C(c3ccccc3)c3ccccc3)CC2)c2ccccc2c1=O	-8	-10	5983	0	7	-7.1	8
CC(NC(=O)COC(=O)Cn1cnc2ccccc2c1=O)C1CC2CCC1C2 (configuration not stated)	6	-15	2166	5	10	6.0	-3

Further entries.
SMILES	Mtb hypoxia rep	PrP 5UTR inh	Autofluor counter	Sa ugtP lethal	Mtb hypoxia rep growth	RN4220 kill	BJeLR lethal
CCCCCP(=O)(O)c1ccccc1	-3	-14	4599	1	-8	0.1	0
Cc1ccc(-n2c(SCC(=O)N/N=C/C=C/c3ccccc3[N+](=O)[O-])nc3ccccc3c2=O)cc1	.	-7	2396	.	.	.	3
COc1ccc(OC)c(-c2nc3cc4ccccc4cc3nc2-c2ccccc2)c1	-10	-18	2721	10	6	-6.4	-4
CCN(CCNC(=O)Nc1ccc(Cl)cc1)c1ccccc1	.	-13	2520	-12	.	-14	-3
O=C(OCn1nnc2ccccc2c1=O)c1cc(-c2ccccc2)nc2ccccc12	3	-20	2567	-13	-4	-2.2	-6
COc1ccccc1/C=N/Nc1cc(C)nc(N2CCOCC2)n1	.	6	4321	.	.	.	2
CCCCc1nnc(NC(=O)CCS(=O)(=O)c2ccc(Cl)cc2)s1	1	6	6220	0	0	3.9	.
O=C(COc1ccccc1)NCC(=O)N/N=C/c1ccc(O)cc1O	.	-16	4239	.	.	.	11
COc1ccccc1NC(=O)CN1CCN(CC(=O)Nc2ccc(Cl)c(C(F)(F)F)c2)CC1	.	-13	4293	-26	.	-15	.
C1CCN=C(Nc2nn[nH]n2)CC1	16	-10	3193	3	7	3.0	5
Cc1ccc(Cn2cc(S(=O)(=O)c3ccc(Cl)cc3)c(=O)c3cc(F)ccc32)cc1	.	-8	2482	.	.	.	-8
COc1ccc(-c2ccc(CCC(=O)O)n2CC(=O)Nc2ccccc2C)cc1	0	-13	3596	12	-4	1.7	-4
COc1ccccc1OCCn1cc(/C=N/NC(=O)c2ccncc2)c2ccccc21	.	-13	4119	.	.	.	-2
Cc1ccc(OC(C)C(=O)Nc2cc(C)on2)cc1 (configuration not stated)	7	-27	6269	4	-6	2.9	6
Cn1c(=O)c2[nH]c(CCNC(=O)c3ccccc3)nc2n(C)c1=O	9	-15	4439	6	2	2.5	.

Later entries:
SMILES	Mtb hypoxia rep	PrP 5UTR inh	Autofluor counter	Sa ugtP lethal	Mtb hypoxia rep growth	RN4220 kill	BJeLR lethal
CC1CC2OC(=O)C3(C)CCCC(C)(C23)C1(O)CCc1ccoc1 (configuration not stated)	17	-30	4380	2	4	3.2	-3
COc1ccc(NC(=O)CCCCC#Cc2ccccc2)cc1	-2	-8	3488	1	4	-1.1	1
COC(=O)CCCn1nc(NC(=O)COc2ccc(F)cc2)cc1C	-4	-3	4313	8	-6	2.9	-12
COc1cc(/C=N/N2C(C)CCCC2C)cc(Br)c1O (configuration not stated)	.	-19	2682	.	.	.	1
Cn1nc(C(F)(F)F)c(-c2ccc(Br)cc2)c1NC(=O)c1ccco1	0	8	6524	-22	6	5.6	-7
COc1ccc(C(=O)/C=C/Nc2ccccn2)cc1	-3	66*	10628	-10	-11	-1.0	.
COc1ccc(C2CC(c3ccc(F)cc3)n3nc(NS(C)(=O)=O)nc3N2)cc1 (configuration not stated)	9	-17	3181	1	-1	-2.3	-4
COC(=O)NN=C(C)c1ccc(-n2ccnc2)cc1	14	.	.	4	3	3.3	.
CCOC(=O)C1=NN(C(=O)c2ccc(C)cc2)C(O)(c2ccc(Cl)cc2)C1 (configuration not stated)	5	-15	4310	-21	8	25	1
COc1cc(NC(=O)CCS(=O)(=O)c2ccc3c(c2)oc(=O)n3C)cc(OC)c1	1	-18	5433	-1	-2	3.3	-6
Cc1nc2ccccc2c(=O)n1N=Cc1ccccc1O	11	.	.	6	2	1.2	.
CC(C)(C)c1nn(-c2ccccc2)c2[nH]c(=O)c(CNc3ccc4c(c3)OCCO4)cc12	2	-9	5962	33	3	-14	-1
CCOC(=O)N1CCN(S(=O)(=O)N2CCCC(C(=O)NCCc3ccc(OCC)c(OCC)c3)C2)CC1 (configuration not stated)	-1	-6	5506	2	5	0.2	-6
COc1ccc(N(CC(=O)NCc2ccccc2)S(=O)(=O)c2c(C)nn(C)c2C)cc1	11	-20	6629	0	10	-8.2	-4
Cc1ccc(-c2noc(-c3ccccc3C(=O)NCC3CCCO3)n2)cc1 (configuration not stated)	.	-36	2453	-9	.	0.9	0

In the list so far, these contain fluorine:
SMILES	Mtb hypoxia rep	PrP 5UTR inh	Autofluor counter	Sa ugtP lethal	Mtb hypoxia rep growth	RN4220 kill	BJeLR lethal
CN1CCN(C(=O)C2CCCN(S(=O)(=O)c3ccc(F)cc3)C2)CC1 (configuration not stated)	2	-11	5355	-2	5	1.3	-5
CCc1nnc(SCc2cccc(F)c2)nc1CC	12	-11	3550	3	8	5.7	-8
Cc1ccc(C(=O)Oc2cc(N)n(S(=O)(=O)c3ccc(F)cc3)n2)cc1	2	-20	6008	0	4	3.4	0
CCCC(c1nnnn1Cc1ccc(F)cc1)N1CCN(C)CC1 (configuration not stated)	4	-16	4318	3	-3	0.4	4
COc1ccccc1NC(=O)CN1CCN(CC(=O)Nc2ccc(Cl)c(C(F)(F)F)c2)CC1	.	-13	4293	-26	.	-15	.
Cc1ccc(Cn2cc(S(=O)(=O)c3ccc(Cl)cc3)c(=O)c3cc(F)ccc32)cc1	.	-8	2482	.	.	.	-8
COC(=O)CCCn1nc(NC(=O)COc2ccc(F)cc2)cc1C	-4	-3	4313	8	-6	2.9	-12
Cn1nc(C(F)(F)F)c(-c2ccc(Br)cc2)c1NC(=O)c1ccco1	0	8	6524	-22	6	5.6	-7
COc1ccc(C2CC(c3ccc(F)cc3)n3nc(NS(C)(=O)=O)nc3N2)cc1 (configuration not stated)	9	-17	3181	1	-1	-2.3	-4

Additional records
SMILES	Mtb hypoxia rep	PrP 5UTR inh	Autofluor counter	Sa ugtP lethal	Mtb hypoxia rep growth	RN4220 kill	BJeLR lethal
CCOc1ccsc1C(=O)OC	-1	-17	6279	-4	16	3.1	4
COc1cc(OC)cc(-c2c(-c3cccs3)c3cc(-c4ccc(C(N)=O)cc4)ccc3n2C)c1	8	-40	3450	-11	7	-4.2	.
COc1cc(/C=N/NC(=O)CCC(=O)NC2CCCCC2)ccc1C	.	-33	4238	.	.	.	12
COc1cccc(/C=N/NC(=O)CNC(=O)C(c2ccccc2)c2ccccc2)c1O	.	21	4751	.	.	.	-1
CCN1CCN(CCCN(Cc2ccco2)C(=S)Nc2cccc(Cl)c2C)CC1	-1	-14	4317	6	-6	5.2	6
Cc1c(C)c2c(OCC(=O)NCc3ccccn3)cc3c(c2oc1=O)CCC(C)(C)O3	.	-18	5086	1	.	2.3	8
CC(=O)OCCn1c2nc(=O)[nH]c(=O)c-2nc2cc(C)c(C)cc21	-56	-12	2682	1	-2	13	7
COc1ccccc1CCC(=O)Nc1ccc2c(c1)CN(CCCn1cccn1)CC2	-1	-28	6539	12	10	6.1	-11
CCN(Cc1ccccc1)C(=O)/C=C/c1ccccc1[N+](=O)[O-]	-3	-13	2608	-13	10	-5.3	2
Cc1ccc(NC(=O)N2CCN(c3ccccn3)CC2)cc1	18	-17	22825*	2	11	2.9	-1
CSc1nn(-c2ccc(C(=O)OC(C(=O)NC(N)=O)C(C)C)cc2)c(=S)s1 (configuration not stated)	-2	-34	4114	6	-8	3.0	-2
CC(NC(=O)CN1C(=O)NC2(CCCCC2C)C1=O)c1ccccc1 (configuration not stated)	6	-13	3121	9	-2	6.0	.
Cc1ccc(CSCC(=O)Nc2ccccc2)cc1	6	-13	3699	5	2	2.7	1
COc1ccccc1NS(=O)(=O)c1ccc(NN=Cc2c(C)nn(-c3ccccc3)c2N2CCCC2)c([N+](=O)[O-])c1	4	.	.	-2	2	9.3	.
CNC(=O)OCCc1nccn1C	-4	-30	8393	-1	2	-4.4	-9
NNC(=O)c1cccc(COc2ccccc2Br)c1	.	-67	4657	-6	.	1.9	6
Cc1ccc(NC(=O)Cc2ccc([N+](=O)[O-])cc2)c(Br)c1	.	-20	1826	.	.	.	3
COc1ccc(N2C(=O)CCC(C(=O)NCc3ccccn3)C2c2ccc(OC)c(OC)c2)cc1 (configuration not stated)	9	-4	8409	-3	4	-0.9	-1
